# Screening results: PubChem BioAssay, several laboratories
# PABP polyA inh: PABP poly(A) RNA binding inhibitors, primary screen, biochemical, fluorescence polarization, uHTS; Polyadenylate-binding protein 1 (Homo sapiens), P11940; inhibition, % at 35 µM; hit rate 1% among 290,000; AID 2014, 2009;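 active = 50% or more with normal probe brightness, or confirmed in later tests; inconclusive = above 50% with abnormal brightness, or retests that disagree; inactive = below 50% or failed in later tests; about a fifth of its hits are not listed in these tables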;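 also: calls also rest on retests at 20 µM and on dose response follow-up; controls were probe without protein and protein plus probe with vehicle; some compounds called inactive have numbers as strong as hits; many hits fall short of the cut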
# Target sequence (P11940 whole entry, looked up): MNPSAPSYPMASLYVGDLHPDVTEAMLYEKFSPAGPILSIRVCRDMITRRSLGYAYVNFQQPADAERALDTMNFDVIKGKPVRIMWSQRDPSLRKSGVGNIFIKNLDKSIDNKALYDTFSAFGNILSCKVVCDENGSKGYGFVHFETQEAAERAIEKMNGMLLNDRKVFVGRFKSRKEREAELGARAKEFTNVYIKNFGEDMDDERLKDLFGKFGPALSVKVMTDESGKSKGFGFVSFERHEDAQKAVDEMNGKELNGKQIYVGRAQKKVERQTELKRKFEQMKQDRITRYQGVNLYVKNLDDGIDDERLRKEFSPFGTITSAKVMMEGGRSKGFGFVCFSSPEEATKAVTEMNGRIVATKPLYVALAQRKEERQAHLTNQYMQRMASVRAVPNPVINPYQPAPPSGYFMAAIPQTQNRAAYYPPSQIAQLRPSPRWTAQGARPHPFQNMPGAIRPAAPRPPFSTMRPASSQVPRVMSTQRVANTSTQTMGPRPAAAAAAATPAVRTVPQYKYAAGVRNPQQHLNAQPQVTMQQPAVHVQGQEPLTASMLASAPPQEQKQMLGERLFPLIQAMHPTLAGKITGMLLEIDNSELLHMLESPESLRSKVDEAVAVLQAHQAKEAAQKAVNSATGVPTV
# Yeast UUG start: modulators of yeast start codon fidelity, primary screen, whole organism, S. cerevisiae, single point, plate reader | AID 602363, 2012 | activity score, % at 18.7 µM | S. cerevisiae UUG-firefly luciferase reporter, luminescence/redox ratio | hit rate 0.13% among 350,000;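 active = replicate mean at a twofold rise or more, about +100% in these data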;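 also: firefly luciferase made from a UUG start codon reports start codon fidelity; reporter light over untreated wells divided by growth signal over untreated wells; some hits fall short of that in this replicate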
# Rce1 inhib: yeast Rce1p protease inhibitors, primary screen, biochemical, fluorescence, cell-free homogeneous; yeast membranes, quenched prenylated peptide cleavage fluorescence; calls only; hit rate 0.27% among 290,000; AID 2563, 2010;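 active = fall in fluorescence gain of 50% or more versus controls, with final raw signal at or below 3038400; inconclusive = same 50% fall but final raw signal above 3038400; inactive = fall in fluorescence gain under 50%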;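 also: plate controls were neutral control wells for no effect and wells lacking membranes for full effect; tested at 10 µM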
# Target sequence (Q03530 whole entry, looked up): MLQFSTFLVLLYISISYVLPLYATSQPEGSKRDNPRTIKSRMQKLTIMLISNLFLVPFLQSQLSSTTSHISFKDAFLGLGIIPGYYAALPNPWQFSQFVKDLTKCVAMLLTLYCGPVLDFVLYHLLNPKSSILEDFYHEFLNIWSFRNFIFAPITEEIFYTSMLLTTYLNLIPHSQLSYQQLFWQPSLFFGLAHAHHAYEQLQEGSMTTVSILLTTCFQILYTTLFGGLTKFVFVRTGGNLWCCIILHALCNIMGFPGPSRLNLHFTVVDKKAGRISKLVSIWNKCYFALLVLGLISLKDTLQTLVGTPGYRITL
# eIF4H FP inh: human eIF4H binding inhibitors, primary screen, translation initiation inhibitor project, biochemical, uHTS, fluorescence polarization. Eukaryotic translation initiation factor 4H (Homo sapiens), Q15056. eIF4H fluorescence polarization binding assay. inhibition, % at 35 µM. hit rate 0.94% among 290,000. AID 2012, 2009;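 active = 50% or more with normal probe brightness, or confirmed in later tests; inconclusive = above 50% with abnormal brightness, or retests that disagree; inactive = below 50% or failed in later tests; about a fifth of its hits are not listed in these tables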;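 also: calls also rest on retests at 20 µM and on dose response follow-up; 0% = protein and probe with vehicle and 100% = probe without protein; strong numbers were not always called active; many hits fall short of the cut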
# CSC inhib: cancer stem cell viability inhibitors, primary screen, luminescence; AID 2717, 2010; inhibition, % at 7.5 µM; cancer stem cell-like cells viability; hit rate 1.1% among 300,000;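 active = mean at 75% or more and at least half the replicates too; inconclusive = mean and replicates disagree; tested in HMLE shEcad cells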;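 also: 0% = median of negative and 100% = median of positive control wells; the first replicate is given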
# Env fusion inh: inhibitors of HIV-1 Env-driven cell-cell fusion, primary screen, HeLa-JRFL effector, CEM21 target cells, luciferase. inhibition, % at 12.3 µM. AID 651610, 2012. hit rate 1.1% among 360,000;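 active = mean replicate inhibition score of at least 50 and every replicate individually at or above 50; inconclusive = only one of the two criteria met; inactive = mean below 50 and not all replicates reaching 50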;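 also: 0% = plate neutral controls and 100% = maraviroc near 300 nM; one replicate is shown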
# MT1-MMP act inh: blockers of MT1-MMP proenzyme processing, primary screen, HT1080 RFP-PRO-GFP cells, GFP/RFP fluorescence; Matrix metalloproteinase-14 (Homo sapiens), P50281; GFP/RFP ratio fluorescence, overnight; percent of plate control window, DMSO zero; GFP/RFP ratio change, % at 20 µM; hit rate 0.061% among 360,000;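 active = GFP/RFP ratio change of at least 30% with cell ATP level not reduced by more than half and red fluorescence within 50% of control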; also: strong numbers were not always called active
#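 system = RFP-PRO-GFP reporter HT1080 cells | dosing = 20 µM single dose, 1% DMSO | timing = overnight cell settling, then overnight compound exposure, 37 °C, 5% CO2 | read-out basis = GFP/RFP fluorescence ratio | controls = DMSO and RFP-L50D-GFP cell wells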
# MT1-MMP act inh RFP: second read-out of MT1-MMP act inh, no call of its own (marks repeat the call); RFP signal change, %; measured here: RFP expression control read;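 0 = vehicle wells; hits needed this value within 50% of zero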
# The depositor's hits bear a star; i = inactive; ? = inconclusive; · = not tested or not shown.
SMILES,PABP polyA inh,Yeast UUG start,Rce1 inhib,eIF4H FP inh,CSC inhib,Env fusion inh,MT1-MMP act inh,MT1-MMP act inh RFP
O=C1OC2CCC1(c1ccccc1)C2 (stereo unspecified),2,·,i,-5,-6,·,4,3
Cn1c(Cn2c(=O)sc3ccccc32)nnc1SCc1ccccc1F,5,-1,i,11,2,1,13,-3
COc1ccc(S(=O)(=O)n2c([N+](=O)[O-])cnc2C)cc1OC,8,-7,i,-5,2,8,0,2
c1ccc(-c2nc(N3CCCCCC3)nc(-n3ccnc3)n2)cc1,-2,-14,i,-12,69,·,-22,-14
CC(C)(C)NC(=O)CSc1nnc(C2CC2)n1Cc1ccccc1,8,-6,i,14,-11,·,-3,-1
Cc1cc([N+](=O)[O-])cc(/C=N/n2c(C)nc3ccccc3c2=O)c1O,0,·,i,8,7,11,-3,3
N#CC(C#N)=C1C=CC=CN1/C(=C\c1ccco1)C(=O)c1ccc(Cl)cc1,2,·,·,?,-63,-323,-26,-3
CCOC(=O)c1c(-c2ccc(OC)cc2)cn2ccccc12,4,·,i,10,-2,-7,-7,-5
CCCCNS(=O)(=O)c1ccc2nc(-c3cccnc3)cc(C(=O)NC3CCCC3)c2c1,-8,·,i,-2,9,8,0,1
CC1CCN(CCCNC(=O)c2ccc3c(=O)n(CCc4ccccc4)c(=O)[nH]c3c2)CC1,-9,8,i,-7,-3,15,-2,-5
Cc1cc(C)n2nc(C)c(-c3ccccc3)c2n1,·,·,i,·,-12,-57,5,-1
C=CCN(C(=O)C1=NN(C2CCS(=O)(=O)C2)C(=O)CC1)c1nc(-c2ccc([N+](=O)[O-])cc2)cs1 (stereo unspecified),0,·,i,-2,-1,-30,-6,-24
Cc1ccc(C(=O)NCC(=O)N/N=C/c2cccs2)cc1C,30,-11,i,-2,2,7,-2,4
O=c1c2ccccc2nnn1CSc1nnc(-c2cccs2)n1Cc1ccccc1,2,-17,i,0,27,-106,-1,0
Cc1ccn(CC(=O)N2N=C(C(F)F)CC2(O)C(F)F)n1 (stereo unspecified),-5,·,i,-4,8,2,-3,0
Cc1cc(NC(=O)COC(=O)C2CCC(=O)N2)c([N+](=O)[O-])cc1C (stereo unspecified),-4,-20,i,-9,-8,3,3,0
O=C(c1ccccc1[N+](=O)[O-])N1N=C(c2ccccc2)CC1(O)C(F)(F)F (stereo unspecified),6,-4,i,-17,-6,24,5,-4
COc1ccc(NC(=O)Cc2ccc(C)cc2)c([N+](=O)[O-])c1,6,·,i,-3,-7,-12,2,2
Cc1ccc(S(=O)(=O)N(CC(=O)N2CCCCCC2)c2ccccc2F)cc1,5,-14,i,-2,-16,9,·,·
CC(C)CCn1nnnc1C(c1ccccc1)N1CCN(C)CC1 (stereo unspecified),13,-22,i,-5,-12,·,0,2
O=C1CSC(c2cccc([N+](=O)[O-])c2)N1c1c(F)cccc1F (stereo unspecified),-6,-3,·,-3,-5,11,3,5
CCN(CC)S(=O)(=O)c1ccc(Cl)c(C(=O)NCCN2CCOCC2)c1,12,-9,i,-8,-4,15,0,-1
O=C(CCl)N(c1ccccc1)c1c[nH]c2ccccc12,0,·,i,1,59,·,-8,-3
CN1CCN(S(=O)(=O)c2ccc(=O)[nH]c2)CC1,-10,-17,i,-6,6,-44,-1,2
Cc1cc(SCC(=O)Nc2cccc(S(=O)(=O)N3CCOCC3)c2)nc2ccccc12,-2,·,i,3,-4,10,1,-5
CCOC(=O)/C(CCC[N+](C)(CC)CC)=N\O,-10,·,i,-4,-9,-2,1,2
O=C(COc1cc(Cl)c(Cl)cc1Cl)Nn1cnnc1,1,·,i,3,-11,13,4,5
O=C(c1ccc(F)cc1Cl)N(c1ccccn1)C1CCCCC1,7,·,i,-8,-2,7,-1,-2
Cc1cc(SCC(=O)c2cc3ccccc3o2)nc2ccccc12,29,·,i,-3,-7,-102,-42,28
CN(CCC#N)C(=O)CSc1nnc(-c2c[nH]c3ccccc23)o1,-4,-11,i,5,-2,-13,-1,1
Clc1cccc(-c2cccc3nccn23)c1,·,-24,·,·,·,-40,4,7
COC(=O)C1=C(C)N=c2s/c(=C/c3ccoc3)c(=O)n2C1c1ccccc1 (stereo unspecified),105*,-12,i,83*,12,·,-13,0
CCOC(=O)c1cnc(-n2nc(C)cc2C)nc1Nc1ccc(O)cc1,5,·,i,24,-15,23,-10,-29
CCOc1ccc(CCNC(=O)CCn2cccc2)cc1OCC,6,2,i,-2,-12,·,2,4
Cc1[nH]c2ccccc2c1/C=N/NC(=O)CCC(=O)NCc1ccccc1,4,·,i,1,4,0,-2,-1
COc1ccc(C(=O)Nc2ccccc2N2CCCC2)cc1S(=O)(=O)N1CCOCC1,·,-19,i,·,-1,·,3,1
COc1ccc(CCNC(=O)CSc2nnnn2C)cc1OC,-1,·,i,-9,-1,-15,1,2
Cc1cc(C(=O)N/N=C/c2cc(Br)cc(Br)c2OC(=O)c2ccccc2)n[nH]1,8,·,i,24,·,·,·,·
C=CCN1C(=O)C(CC(=O)Nc2ccc(OCCC)cc2)N(CCCN2CCN(Cc3ccccc3)CC2)C1=S (stereo unspecified),3,·,i,-12,25,-32,-6,-11
O=C(Nn1cnc2ccccc2c1=O)C1CCCCC1,-4,-10,i,6,-15,·,5,6
Cc1ccc(NC2CCCN(C(=O)CN3C(=O)CSC3=O)C2)cc1C (stereo unspecified),-1,-12,i,1,-1,20,-3,1
COC(=O)c1ccc(N/C=C/C(=O)c2ccc(OC)c(OC)c2)cc1,14,-7,i,2,0,-33,0,1
Cc1ccc(C)c(S(=O)(=O)N2CCN(C(=O)c3cc(-c4cccs4)nn3-c3ccccc3)CC2)c1,·,-20,i,·,-9,38,-5,-10
CNC(=O)C1CN(C(=O)c2cccc(S(=O)(=O)N3c4ccccc4CC3C)c2)c2ccccc2O1 (stereo unspecified),·,5,·,·,-14,12,-2,4
CC(C)[C@@H](C(=O)N1CCN(Cc2ccc3c(c2)OCO3)CC1)n1nnc2ccccc2c1=O,-5,·,i,-11,4,4,-2,-1
CC(C)N(C(=O)[C@H]1C[C@H](CC(=O)NCCCn2ccnc2)C(=O)N2CCc3c([nH]c4ccc(Cl)cc34)[C@]12C)C(C)C,·,-9,·,·,·,1,4,2
CC1(C(=O)NCC2CC2)Cc2c(-c3cccc(C(N)=O)c3)ccnc2O1 (stereo unspecified),·,-17,·,·,·,-10,0,0
O=C(ONC1=NCCCCC1)c1c(F)cccc1F,-2,·,·,-5,7,-8,-6,-8
Cc1ccc(C)c(C(=O)COC(=O)c2ccc(Br)o2)c1,-6,-21,i,-7,9,-79,-3,0
Cc1ccc2nc(-c3ccc(NS(=O)(=O)c4ccc(F)c(F)c4)cc3)sc2c1,8,·,i,-3,103*,-132,5,-3
CCN(CC)S(=O)(=O)c1cccc(NC(=O)COC(=O)c2cc(=O)c3ccccc3o2)c1,2,·,i,12,0,10,-2,1
CCN(CC)S(=O)(=O)c1cccc(C(=O)N/N=C/c2ccc(OC)c(O)c2)c1,3,-7,i,-10,1,14,-3,2
Cc1ccc(NC(=O)c2cccs2)cc1NC(=O)c1ccc(F)cc1,7,-15,·,2,0,-9,-2,-4
CC1CCC(C(C)C)C(OC(=O)COC(=O)c2ccc(N)cc2)C1 (stereo unspecified),-5,·,i,-13,?,12,2,-2
CC1CCc2nn(CC(=O)Nc3c(F)cc(F)cc3Br)cc2C1 (stereo unspecified),8,-14,i,-3,0,-25,2,2
O=C(Nc1ccc(F)cc1)Nc1cc(OCC(F)(F)F)cc(OCC(F)(F)F)c1,-2,·,i,-4,51,70*,-43,-41
CC(C)C(=O)N1CCN(c2ccccc2NC(=O)COc2ccccc2)CC1,-6,0,i,-6,-6,15,0,-1
NC1=NC[C@@H](Cc2ccc(O)cc2)N1CCc1cccc(F)c1,2,-9,i,2,-1,-26,0,-2
Cc1noc(C)c1COC(=O)CCN1c2ccccc2Sc2ccccc21,2,-7,i,2,3,-66,4,1
COC(=O)Cc1cn(-c2ncc(C(F)(F)F)cc2Cl)c2ccccc12,3,5,i,0,-9,·,-5,-4

# Env fusion inh, entries above that show a hit
mol	Yeast UUG start	Rce1 inhib	Env fusion inh	MT1-MMP act inh	MT1-MMP act inh RFP
O=C(Nc1ccc(F)cc1)Nc1cc(OCC(F)(F)F)cc(OCC(F)(F)F)c1	·	i	70*	-43	-41

# Already shown: an excerpt of the list.
SMILES,PABP polyA inh,Yeast UUG start,Rce1 inhib,eIF4H FP inh,CSC inhib,Env fusion inh,MT1-MMP act inh,MT1-MMP act inh RFP
Cc1ccc2nc(-c3ccc(NS(=O)(=O)c4ccc(F)c(F)c4)cc3)sc2c1,8,·,i,-3,103*,-132,5,-3
CCN(CC)S(=O)(=O)c1cccc(NC(=O)COC(=O)c2cc(=O)c3ccccc3o2)c1,2,·,i,12,0,10,-2,1

# New compounds follow
SMILES,PABP polyA inh,Yeast UUG start,Rce1 inhib,eIF4H FP inh,CSC inhib,Env fusion inh,MT1-MMP act inh,MT1-MMP act inh RFP
O=C(Cn1nnc(-c2cccs2)n1)Nc1ccccc1C(F)(F)F,7,·,i,-8,-2,10,3,3
CC(CCn1cccn1)NC(=O)CCc1nnc(C2CCCCC2)o1 (stereo unspecified),-2,·,i,-8,3,15,5,3
COc1cc(/C=N/Nc2ccccc2C(F)(F)F)ccc1O,1,·,i,-7,22,-16,3,-10
C=CCNC(=O)c1onc(CSc2ccc(F)c(F)c2)c1C(=O)O,21,-13,i,1,-2,-3,12,4
Cc1ccc(OCCC(=O)OCC(=O)NCCNC(=O)COC(=O)CCOc2ccc(C)cc2)cc1,·,-10,·,·,·,10,-5,0
CCOC(=O)c1ccc(NS(=O)(=O)c2c(C)n(C)c(=O)n(C)c2=O)cc1,6,8,i,0,-2,12,1,0
COc1cc2c(cc1NC(=O)CC1SC(N3CCCC3)=NC1=O)oc1ccccc12 (stereo unspecified),-3,-6,i,-7,-11,-36,-3,-4
Cc1ccc(N2C(=O)CC3(CC4C=CC3C4)C2=O)cc1 (stereo unspecified),4,-7,i,-4,7,·,1,0
CCCCOc1ccccc1C1C(C(=O)OC)=C(C)N(C)C(C)=C1C(=O)OC,-11,-8,i,4,15,-27,6,1
Cc1ccc(N2CCN(S(=O)(=O)c3c(C)nc4sccn4c3=O)CC2C)cc1 (stereo unspecified),·,2,·,·,·,25,1,-3
NNC(=O)CCC(=O)Nc1ccccc1,0,·,·,-3,-10,12,-5,-9
CCOC(=O)c1c(NC(=O)COC(=O)Cc2c[nH]c3ccccc23)sc(C(=O)N(C)C)c1C,·,34,i,·,17,-6,-1,1
Cn1cc(C(=O)NC2CCCCC2)c(=O)c2cc(S(=O)(=O)N3CCOCC3)ccc21,2,-3,i,-6,-4,-11,-1,-2
